# 2A firefly: lowers the firefly signal of an FMDV 2A StopGo reporter. HEK cells with a luciferase reporter of 2A StopGo recoding. Potency, µM (doses to about 57.5 µM), for inactives: top-dose signal change, negative = less light. actives 0.23% (n = 120,000). AID 1745856; active = well fitted falling curve with a large enough effect; inconclusive = small, poorly fitted or top-dose-only effect; inactive = no such curve, though single readings can be large or run the other way; note: nearly all actives have a fitted effect of over 60% in size; overnight with compound
# StopGo RLuc: FMDV 2A StopGo reporter, Renilla signal. actives 0.32% (n = 120,000). Potency, µM (series often up to 57.5 µM), for the others: top-dose signal change, negative = less light. HEK cells with a luciferase reporter of 2A StopGo recoding; active means well fitted falling curve with a large enough effect; inconclusive means small, poorly fitted or top-dose-only effect; inactive means no such curve, though single readings can be large or run the other way; note: nearly all actives have a fitted effect of over 55% in size; overnight with compound
# Active calls of the source: *; ? = inconclusive; [ ] = another dose, or the depositor's remark. % is set by controls: 0 for no effect and ±100 for the full control effect; potency is the fitted concentration of half-maximal effect.
mol | 2A firefly | StopGo RLuc
COc1cccc(NC(=O)Cn2c(=O)n(Cc3ccc4c(c3)OCO4)c(=O)c3oc4ccccc4c32)c1 | -16% | -8%
CC1CCN(C(=O)Cn2c(=O)n(-c3ccc(Cl)cc3)c(=O)c3c4c(sc32)CCC4)CC1 | 19% | 22%
Cc1ccc(OC(C)C(=O)N2CCN(CCc3ccccn3)CC2)cc1C (stereo not given) | -15% | -9%
COCCN1C(=O)c2ccccc2N2C(=O)CCC12C(=O)OCc1cc(=O)oc2cc(C)ccc12 (stereo not given) | 45% | 14%
CCCOc1cccc(C(=O)Nc2ccc(-c3cc4ccccc4oc3=O)c(C)c2)c1 | 3% | -14%
CC(C)(C)NS(=O)(=O)c1ccc(NC(=O)COc2ccc(Br)cc2)cc1 | -3% | 10%
CCOc1ccc(CCNC(=O)c2noc(C)c2Cn2nc(C)cc2C)cc1 | -1% | -5%
CCc1cc(=O)n(CC(=O)Nc2cccc(OC)c2)c(-c2ccccc2)n1 | 22% | 24%
CCOc1cc(C(=O)Nc2ccc(-c3nc4ccccc4s3)cc2Cl)cc(OCC)c1OCC | 32%[activator] | -6%
CN(C)c1ccc(NC(=O)Cn2nnc3sc4c(c3c2=O)CCC(C(C)(C)C)C4)cc1 (stereo not given) | 2% | -4%
COc1ccc(NC(=O)c2c(NCc3ccc(C)o3)sc3c2CCC(C)C3)c(OC)c1 (stereo not given) | -21% | 10%
CC(C)CNS(=O)(=O)c1ccc(N2CCCCS2(=O)=O)cc1 | 17% | 129%[activator]
O=C(COc1ccccc1Cl)Nc1ccc(-c2nc3ccccc3o2)cc1 | 6% | 1%
COc1ccc(CCNC(=O)COC(=O)c2cccnc2Nc2cccc(C(F)(F)F)c2)cc1 | -8% | -14%
CCc1ccc2oc(=O)cc(CN3CCN(C)CC3)c2c1 | -1% | -4%

# The results go on:
mol | 2A firefly | StopGo RLuc
Cc1ccc2[nH]cc(CCNC(=O)c3cc(F)ccc3F)c2c1 | -7% | -5%
CCCCCCCCCCCCCCCC(=O)NCCO | 2%[11.5 µM] | 4%
Cc1ccc(/C=C/c2onc(C)c2S(=O)(=O)N2CCC(C(=O)Nc3ccccc3C(F)(F)F)CC2)cc1 | -10% | -10%
CCCCOc1ccc(C2=NC(c3ccccc3)=Nc3ccc(OC)cc3N2)cc1 | 53%[activator] | -2%
Cn1c(=O)c2c(nc(N3CCN(c4ccccn4)CC3)n2Cc2ccccc2F)n(C)c1=O | -15% | -24%
Cc1ccc(C(O)c2cc3c(cc2NC(=O)c2ccc(F)cc2)OCCO3)cc1 (stereo not given) | -6% | 55%[activator]
COP(=O)(OC)c1nc(-c2cccc([N+](=O)[O-])c2)oc1NCc1ccccc1 | -13% | -8%
Cc1ccc(CCNC(=O)c2sc3ncccc3c2-n2c(C)ccc2C)cc1 | ? | ?
CCOc1ccc(-n2c(=O)c3c(C)c(C)sc3n(Cc3c(F)cccc3Cl)c2=O)cc1 | -3% | -11%
COc1cccc(Oc2c(C)oc3cc(OCc4ccccc4F)ccc3c2=O)c1 | 10% | 14%
O=C(O)C1C(c2ccccc2)C(C(=O)Oc2cccc3ccccc23)C1c1ccccc1 (stereo not given) | 20% | 8%
CCCSc1nn(CCN(C)C)c2nc3sc(C)c(CC)c3c(=O)n12 | -10% | -12%
N#Cc1cccc(C(=O)NC(c2ccccc2)c2cccs2)c1 (stereo not given) | 8% | 26%
Cc1ccc(C)c(NC(=O)c2nnn(Cc3ccc(F)cc3Cl)c2N)c1 | -23% | 53%[activator]
CCOC(=O)c1cc(OC(=O)c2cccc(C)c2)n(-c2ccccc2)n1 | 6% | -6%

# Grouped by structure: those above containing a tert-butyl group
mol | 2A firefly | StopGo RLuc
CC(C)(C)NS(=O)(=O)c1ccc(NC(=O)COc2ccc(Br)cc2)cc1 | -3% | 10%
CN(C)c1ccc(NC(=O)Cn2nnc3sc4c(c3c2=O)CCC(C(C)(C)C)C4)cc1 (stereo not given) | 2% | -4%

# (list continues)
mol | 2A firefly | StopGo RLuc
CC1(NC(=O)CCc2ncc(-c3ccccc3)o2)CCS(=O)(=O)C1 (stereo not given) | 27% | 5%
CCn1c(COc2cc(C)c(Cl)c(C)c2)n[nH]c1=S | 0% | -2%
CCC(=O)Oc1ccc2c(C)c(CC)c(=O)oc2c1 | 5% | 32%
COc1ccc(C(=O)Nc2ccc3oc(-c4ccncc4)nc3c2)cc1Br | -4% | -9%
COc1ccc(-c2noc(C3CC(=O)N(c4cc(C)cc(C)c4)C3)n2)cc1 (stereo not given) | -28% | -20%
CCCn1nc(C(=O)OCC(=O)N2CCCC2)c2ccccc2c1=O | 0% | 0%
CCn1c(=O)c2sccc2n2c(CCC(=O)Nc3ccc(C(C)C)cc3)nnc12 | 14% | 30%[activator]
CN1CCN(Cc2cc(=O)oc3cc(O)c(Cl)cc23)CC1 | 12% | 22%
COc1ccc(C(=O)Nc2ccc3oc(=O)ccc3c2)c(OC)c1 | 108%[activator] | 4%
CN(Cc1ccccc1)C(=O)c1cc(-c2cccnc2)nc2ccccc12 | 0% | 94%[activator]
Cc1nc2ccccc2nc1CS(=O)(=O)C(C)C(=O)N1CCCC1 (stereo not given) | 5% | 2%
Cc1ccc(CN(C)C(=O)CN2CCN(c3ccc([N+](=O)[O-])c4cnccc34)CC2)cc1 | -16% | -12%
CC(C)Nc1nc(-c2cc3c4c(c2)CC(=O)N4CCC3)cs1 | 23% | -1%
O=C(COc1ccc(F)cc1Cl)NCc1cccc(NC(=O)C2CC2)c1 | 55%[activator] | 129%[activator]
CC(C)CNC(=O)COC(=O)c1cccc(F)c1 | 17% | 4%

# Six entries from above, with values under each structure.
# Each structure is followed by: 2A firefly	StopGo RLuc
- CCCn1nc(C(=O)OCC(=O)N2CCCC2)c2ccccc2c1=O
→ 0%	0%
- CCn1c(=O)c2sccc2n2c(CCC(=O)Nc3ccc(C(C)C)cc3)nnc12
→ 14%	30%[activator]
- CN1CCN(Cc2cc(=O)oc3cc(O)c(Cl)cc23)CC1
→ 12%	22%
- COc1ccc(C(=O)Nc2ccc3oc(=O)ccc3c2)c(OC)c1
→ 108%[activator]	4%
- CN(Cc1ccccc1)C(=O)c1cc(-c2cccnc2)nc2ccccc12
→ 0%	94%[activator]
- Cc1nc2ccccc2nc1CS(=O)(=O)C(C)C(=O)N1CCCC1 (stereo not given)
→ 5%	2%

# Next section:
mol | 2A firefly | StopGo RLuc
CCOC(=O)c1c(NC(C)=O)c2c3c(sc2n1Cc1ccc(Cl)cc1)CCCC3 | 55%[activator] | 36%[activator]
Cc1cc(=O)oc2cc(OCC(=O)NCc3cccs3)ccc12 | 14% | -9%
O=C(CSc1nc2ccccc2c(=O)n1CCn1cc(Cl)cn1)Nc1ccc(F)c(Cl)c1 | 0% | 22%
CCOC(=O)c1c(-c2ccccc2Cl)csc1NC(=O)CN1CCOCC1 | ? | ?
Cc1ccc(Nc2sc(C(=O)c3ccccc3)c(N)c2C(=O)NC(C)C)cc1 | -19% | 5%
CC(C)(C)c1cc(-c2ccccc2)cc(C(C)(C)C)c1O | 12% | 18%
COc1cc(OC)c(NC(=O)c2c3c(nc4ccccc24)C(=O)N(C2CCCCC2)C3)cc1Cl | -14% | -5%
O=C(NCc1cccc(F)c1)c1ccc(CS(=O)c2ccccc2Cl)o1 (stereo not given) | 8% | 10%
Cc1ccc(NC(=O)C2CCN(S(=O)(=O)c3cccs3)CC2)cc1 | 0% | 11%
CCOC(=O)c1c(C)[nH]c(C)c1S(=O)(=O)N1CCCC(C(=O)Nc2cc(C)ccc2C)C1 (stereo not given) | -13% | 4%
CCN(CC)C(=S)SC/C(=N/Nc1ccc(Br)cc1)c1ccccc1 | 283%[activator] | 96%[activator]
Cc1cccc(NC(=O)CSc2nc(=O)n(Cc3cccnc3)c3c2CCC3)c1 | 6% | 94%[activator]
CCOC(=O)CSc1nc(C)c2cccc(C)c2n1 | 0% | 2%
CCN(CC)C(=O)c1ccc(NC(=O)CSc2ccc3ccccc3n2)cc1 | -8% | -3%
Cc1ccc(-c2nc3ccccc3s2)cc1NC(=O)c1ccccc1C | 60%[activator] | -7%

# Remaining list, next part:
mol | 2A firefly | StopGo RLuc
Cc1ccccc1Nc1nc(CSc2nnnn2C2CC2)cs1 | 5% | -14%
O=S(=O)(NC(c1ccccc1)c1cccs1)c1cccs1 (stereo not given) | 11% | 48%[activator]
N=C(N)c1cc(I)cc([N+](=O)[O-])c1 | -4% | -3%
CCN(CC)S(=O)(=O)c1ccc(NC(=O)c2c(C)oc3ncnc(N4CCCCC4)c23)cc1 | -9% | 9%
C=CCSc1nc2c(c(=O)[nH]c(=O)n2C)n1Cc1ccc(Cl)cc1 | 3% | ?
CC(C)COc1ccc(C(=O)OCC[N+]2(C)CCOCC2)cc1 | 20% | 0%
COc1cccc(NC(=O)Cn2c(=O)n(-c3ccc(Cl)cc3)c(=O)c3oc4ccccc4c32)c1 | 0% | -8%
COc1ccc(CNCCc2cccc(F)c2)cc1 | 0% | -4%
CCS(=O)(=O)c1nc(-c2ccc(Cl)cc2)cc(C(F)(F)F)n1 | ? | ?
N#Cc1nc(COc2ccc(-c3ccccc3)cc2)oc1NCCCN1CCOCC1 | 22% | 20%
COc1cccc2cc(-c3csc(-c4ccccc4F)n3)c(=O)oc12 | -9% | -8%
N/C(=C\C(=O)c1c(O)c(F)c(F)c(F)c1F)C(=O)O | 7% | -10%
COc1ccc(C(C)=O)cc1CN1CCc2ccccc2C1 | 1% | 5%
CCc1ccc(OCc2ccc(C(=O)O)cc2)cc1 | ? | -1%
O=c1cc(CN2CCN(c3ccccc3F)CC2)c2cc(Cl)c(O)cc2o1 | 10% | 4%

# The list goes on:
mol | 2A firefly | StopGo RLuc
Cc1ccc(Nc2nnc(-c3cc4c(ccc5ccccc54)oc3=O)s2)cc1 | -16% | -22%
Cc1cc(C)cc(-n2c(SCC(=O)N3CCOCC3)nc3c([nH]c4ccccc43)c2=O)c1 | -11% | -11%
Cc1nn(C(C)C(=O)NCc2ccco2)c(=O)c2nn(-c3ccccc3)c(C)c12 (stereo not given) | -16% | -20%
CNC(=O)c1c(NC(=O)Cc2coc3ccc(OC)cc23)sc2c1CCCC2 | 4% | 43%[activator]
CC(C)CC(NC(=O)COc1cccc2ccccc12)C(=O)O (stereo not given) | 0% | 9%
NCC(O)COc1ccccc1 (stereo not given) | 5% | 9%
O=C(NCc1ccccc1)c1ccc(CNS(=O)(=O)c2ccc(Br)cc2)cc1 | -7% | -2%
CCCc1nnc(NC(=O)C(CC)Sc2nnc3c4ccccc4n(C)c3n2)s1 (stereo not given) | -8% | -7%
COc1cccc(CNC(=O)c2ccc3c(c2)N(Cc2ccc(C(F)(F)F)cc2)C(=O)c2ccccc2S3)c1OC | 6% | -3%
CCOc1cc(C=O)cc(Br)c1OCc1cccc(C)c1 | 10% | 12%
O=C(Nc1nnc(N2CCCC2)s1)Nc1cc(F)ccc1F | 15% | -4%
COc1ccc(CCC(=O)NCC(O)COCc2ccc(OC)cc2)cc1 (stereo not given) | -7% | -18%
COc1cccc(-c2nc(SCc3cc(=O)c4cc(C)cc(C)c4[nH]3)n[nH]2)c1 | 21% | 10%
COC(=O)C(NC(=O)CCc1c(C)nc2c(-c3ccccc3)c(C)nn2c1C)C(C)C (stereo not given) | 5% | -7%
CC(C)(C)NC(=O)C1CCN(S(=O)(=O)Cc2ccccc2)CC1 | 7% | 6%

# (continued)
mol | 2A firefly | StopGo RLuc
O=C(OC(c1ccccc1)c1ccccn1)c1cnc2ccccc2n1 (stereo not given) | 47%[activator] | 15%
CCOC(=O)c1c(N)n(-c2ccc(Cl)c(Cl)c2)c2nc3ccccc3nc12 | -5% | 1%
CCN(CC)S(=O)(=O)c1nnc(NC(=O)c2ccc(C)cc2)s1 | 64%[activator] | 16%
CC(=O)Nc1c(C)nn(-c2ccccc2)c1N1CCC(C(=O)NCc2ccccc2Cl)CC1 | -19% | 3%
O=c1[nH]cnc2scc(-c3ccc(F)cc3)c12 | 11% | 15%
COc1ccccc1C(=O)Nc1ccc2c(c1)nc(CN1CCCCC1)n2C | 18% | 18%
Cc1c2cnn(-c3ccccc3)c(=O)c2c(C)n1CCCC(=O)NCc1ccccn1 | 97%[activator] | -5%
Cc1ccc(C)c(NC(=O)c2cc(S(=O)(=O)NCCc3ccccc3)ccc2F)c1 | -3% | 276%[activator]
Cc1ccc(C)c(N2CCN(C(=O)c3cnc4c(-c5ccccc5)c(C)nn4c3C)CC2)c1 | -20% | -13%
CSc1ncc(Cl)c(C(=O)Nc2c(C(=O)Nc3cccc(C)c3)oc3ccccc23)n1 | -9% | -11%
CSc1cccc(NC(=O)c2ccccc2C)c1 | 201%[activator] | 19%
COc1ccc(Cl)cc1NC(=O)CSC1=Nc2ccccc2C2=NC(CC(=O)NCc3cccs3)C(=O)N12 (stereo not given) | -8% | -8%
CCOc1ccc(C(=O)Nc2ccc3oc(-c4cccc(I)c4)nc3c2)cc1 | 17% | 0%
COc1ccc(-c2ocnc2C(=O)Nc2ccccc2OC)cc1 | 12% | -7%
CCOC(=O)c1ccc(NC(=O)c2cnc3c(-c4ccc(F)cc4)c(C)nn3c2C)cc1 | ? | -17%

# Additional compounds
mol | 2A firefly | StopGo RLuc
CCn1c(NC(=O)c2oc3ccccc3c2COC)nc2ccccc21 | 54%[activator] | -5%
COc1ccc(-c2noc(-c3ccc(NCc4ccccc4OC)c([N+](=O)[O-])c3)n2)cc1 | -9% | -10%
CCOCCn1c(Br)nc2c1c(=O)[nH]c(=O)n2C | 5% | -5%
CCCCN(CC)CCNC(=O)COCc1cc(-c2cccs2)on1 | -13% | -17%
Cc1cccc(Cn2nc(C)c(NC(=O)NC3CCCCC3)c2C)c1 | 8% | 7%
O=C(NC1CCCC1)c1cccc2ccccc12 | 21% | 10%
O=C(CSc1nnnn1C1CCCC1)N1CCCC1c1ccc2c(c1)OCCCO2 (stereo not given) | 44%[activator] | 21%
CCN(Cc1ccco1)C(=O)c1cc2cc(Br)ccc2[nH]1 | 41%[activator] | 16%
Cc1c(CC=C(Cl)Cl)c(Cl)nc2c(C)cccc12 | 2% | 10%

# Compound activity from PubChem BioAssay.
